Source: PubChem BioAssay
ALR inh – inhibitors of human sulfhydryl oxidase ALR. AID 485317. 3.8% of 290,000 active. P55789. inhibition, % (test concentration not listed). purified ALR, DTT oxidation, H2O2 HRP-luminol luminescence;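 active = mean and each replicate at 75% or more; inconclusive = only one of the two met; inactive = neither met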;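 also: stock transfer was 7.5 nL into about 7.5 µL; 0% = neutral wells and 100% = wells with inactivated enzyme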
Target sequence (P55789 whole entry, looked up): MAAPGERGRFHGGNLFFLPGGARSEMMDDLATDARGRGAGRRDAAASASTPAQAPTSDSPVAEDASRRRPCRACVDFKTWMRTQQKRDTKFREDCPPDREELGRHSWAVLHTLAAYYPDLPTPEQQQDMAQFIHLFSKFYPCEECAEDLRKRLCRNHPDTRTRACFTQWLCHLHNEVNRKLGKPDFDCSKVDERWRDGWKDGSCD
Ecoli growth – inhibitors of Escherichia coli growth. OD600, 23 h; stronger effect = lower value. OD600 absorbance (no concentration beside the values). 0.21% of 330,000 active. AID 1053175;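 active = OD600 absorbance below the run mean of sample wells minus 3.6 SD, in any replicate, cut at about 0.56 in these data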;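 also: stock transfer was 300 nL into about 60 µL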
FGF22 binding – FGF22 (human) thermal shift binding; calls only at 9.99 µM; recombinant FGF22 thermal shift, SYPRO orange fluorescence; percent of sucrose octasulfate shift, DMSO zero; 1.5% of 340,000 active; Q9HCT0;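 active = melting point raised past a set limit in the mean and every replicate; inconclusive = no clear call; three in four hits are not shown here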
Target sequence (Q9HCT0 whole entry, looked up): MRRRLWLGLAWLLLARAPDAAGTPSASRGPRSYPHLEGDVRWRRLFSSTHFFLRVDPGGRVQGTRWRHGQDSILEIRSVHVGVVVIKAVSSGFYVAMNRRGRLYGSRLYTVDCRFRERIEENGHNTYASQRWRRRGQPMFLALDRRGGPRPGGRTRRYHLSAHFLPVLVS
Vif A3G – HIV-1 Vif–A3G interaction blockers – biochemical, TR-FRET, GST-Vif 1-94, biotin-A3G peptide, dose response retest, primary screen (AID 1117319); 0.57% of 260,000 active; TR-FRET GST-Vif / biotin-A3G peptide binding; higher % means a stronger effect; test concentration not given here; strong numbers were not always called active; inhibition, %, or IC50 in µM where a hit was titrated;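 active = above the screen mean plus three standard deviations and confirmed in dose response; inconclusive = results disagree or hit not tested in dose response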;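 also: Vif residues 1-94 fused to GST binding biotinylated APOBEC3G peptide 110-148; 0% = full assay without inhibitor and 100% = GST in place of GST-Vif; retest series ran down from 100 µM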
MLL AF4-AF9 inh – MLL-AF4/AF9 protein interaction inhibition; AlphaScreen, biotin-AF4 peptide binding to FLAG-AF9; 0.47% of 350,000 active; P42568; inhibition, % at 10 µM;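 active = every replicate reaching a set inhibition limit, whatever the replicate mean, cut at about 25% in these data; inconclusive = mean inhibition reaches that limit but some replicates miss it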;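 also: 0% = plate neutral control median and 100% = total signal loss; the record names both 10 and 1 µM as test concentration; the first replicate is given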
HNF4A DNA FP – change in binding of human HNF4 alpha to DNA | activity change, % at 10 µM | HNF4a-FITC DNA binding, fluorescence polarization, 1 h | 0.3% of 360,000 active; in the data active = activity change above about 30%, passing the limit was not always enough;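 also: controls were the assay level and a saturating level of protein; the project sought stronger binding though the title names inhibitors; some compounds called inactive have numbers as strong as hits; positive values seem to mean higher polarization but the record does not say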
Target sequence (P41235 whole entry, looked up): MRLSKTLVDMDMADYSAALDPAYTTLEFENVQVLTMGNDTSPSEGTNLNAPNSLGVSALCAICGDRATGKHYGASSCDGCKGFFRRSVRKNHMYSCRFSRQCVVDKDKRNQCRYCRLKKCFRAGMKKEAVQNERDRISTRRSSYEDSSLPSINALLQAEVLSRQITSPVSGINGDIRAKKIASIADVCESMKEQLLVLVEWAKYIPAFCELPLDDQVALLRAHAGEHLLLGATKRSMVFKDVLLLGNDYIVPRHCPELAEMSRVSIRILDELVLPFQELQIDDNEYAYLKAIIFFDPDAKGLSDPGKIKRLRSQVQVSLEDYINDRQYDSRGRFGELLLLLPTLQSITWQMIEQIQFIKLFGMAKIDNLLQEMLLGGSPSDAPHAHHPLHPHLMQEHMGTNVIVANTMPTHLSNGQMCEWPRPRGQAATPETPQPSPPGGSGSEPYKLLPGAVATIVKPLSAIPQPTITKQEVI
rRNA inh HTS – selective bacterial rRNA inhibition in E. coli; E. coli WT GFP vs humanized-ribosome RFP mutants, fluorescence, 24 h; stronger effect = lower value; DMSO median 0, no signal -100; GFP signal change (wild-type ribosome), % (concentration not given with the values); 1.6% of 350,000 active; AID 720706;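 active = significant combined selectivity score with lowered wild-type GFP, culture density cut under 30%, mutant RFP and density less affected; inactive = any of these conditions unmet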; also: one replicate is shown; some compounds called inactive have numbers as strong as hits
rRNA inh HTS OD600 – second read-out of rRNA inh HTS, no call of its own (marks repeat the call); OD600 change, %; measured here: OD600 growth;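 optical density of the mix in the first replicate; 0 = DMSO median and -100 = no signal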
rRNA inh HTS RFP – also measured in rRNA inh HTS; calls as there; RFP signal change, %; measured here: RFP humanized mutant strains;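 first replicate; 0 = DMSO median and -100 = no signal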
Starred values were filed as active, the others as inactive; i = inactive; ? = inconclusive; . = no result given; & = joins results of further samples. Only part of the results is shown; count on the stated rates, not on these rows.

rRNA inh HTS RFP,Vif A3G,Ecoli growth,FGF22 binding,MLL AF4-AF9 inh,rRNA inh HTS OD600,HNF4A DNA FP,rRNA inh HTS,ALR inh,SMILES
.,4.9%,0.716,.,.,.,3.0,.,-5.7,Cc1nc(C(C)N(C)Cc2c(C(=O)N3CCCCC3)nc3c(C)cccn23)c(C)s1 (stereo not drawn)
-1.9,-3.6%,0.649,i,-0.3,1.8,1.1,-3.7,-1.7,C[N+]1(CC(O)c2ccccc2)CCCCCC1 (stereo not drawn)
8.2&-0.1,13.0%,.,i,-0.2&-1.9,20.1&22.6,0.8,6.8&5.9,.,C[C@H]1CN([C@@H](C)CO)C(=O)c2cc(Br)cnc2O[C@@H]1CN(C)S(C)(=O)=O
1.2,.,0.575,i,-0.5,6.4,0.6,9.9,-0.3,CC1CCCC(C)N1CC(O)COCc1ccccc1 (stereo not drawn)
.,5.1%,0.678,.,.,.,-0.4,.,.,O=C(Nc1ccc(N2CCOCC2)cc1)c1cc(F)c(F)cc1Cl
0.9,13.1%,0.618,i,1.0,-4.0,1.4,5.1,26.8,Cc1cccc(OCCCCNCc2ccccc2)c1
-2.4,-0.1%,0.617,i,.,-5.0,5.3,-2.8,-6.8,O=c1oc2ccccc2c(Nc2ccc(Cl)cc2)c1[N+](=O)[O-]
1.8&-0.3,.,.,i,-1.5&0.3,10.8&-0.1,-6.5,7.7&2.2,.,C[C@H]1CN([C@@H](C)CO)C(=O)CCCn2nncc2CO[C@H]1CN(C)C(=O)c1cc(-c2ccccc2)on1
-0.6,.,0.703,i,-0.7,7.3,-3.3,12.3,-3.9,COc1cccc(CN(C)C(=O)c2ccc3c(=O)n4c(nc3c2)CCC4)c1OC
-1.1,23.8%,0.708,i,-33.6,-1.9,-0.4,8.6,0.4,O=C(NCC1CCCO1)c1ccc(S(=O)(=O)Nc2ccccc2F)cc1 (stereo not drawn)
.,9.6%,0.718,.,.,.,2.7,.,-2.1,CSCCC(C(=O)N1CC2(C)CC1CC(C)(C)C2)N1C(=O)c2ccccc2C1=O (stereo not drawn)
0.3,.,.,i,-1.5,-4.4,.,-0.6,.,COc1ccc(NC(=O)Nc2ccc3c(c2)[C@H]2C[C@@H](CC(=O)NCc4ccccn4)O[C@@H](CO)[C@H]2O3)cc1
13.2,.,.,i,5.0,-64.2,.,-45.4,.,C[C@@H]1CN([C@@H](C)CO)C(=O)Cc2cc(NS(C)(=O)=O)ccc2O[C@H]1CN(C)Cc1ccc(Cl)c(Cl)c1
1.0,-2.5%,0.645,i,0.6,-1.6,2.2,-2.9,-2.1,COCCC(=O)N1CCC(Oc2ccc(C(=O)NCc3cccc(C)n3)cc2)CC1
-1.5,-0.6%,0.706,i,-1.5,3.4,3.5,5.2,23.6,Cc1c(C)n(CCc2c[nH]c3ccccc23)ccc1=O
0.9,3.1%,0.661,i,1.5,13.5,0.2,14.5,.,O=C(COC(=O)c1ccc(O)cc1O)NC(=O)Cc1ccccc1
.,21.4%,0.669,i,-2.7,.,2.6,.,42.0,O=c1oc2cc(O)ccc2c2oc3cc(O)ccc3c12
.,-1.2%,0.709,.,.,.,2.3,.,-11.2,CCOC(=O)C(C)Oc1ccc(=O)n(-c2ccccc2)n1 (stereo not drawn)
.,9.4%,0.722,.,.,.,1.6,.,-2.6,CCOC(=O)c1[nH]c(COC(=O)c2ccccc2NC(=O)c2ccco2)c(C(=O)OCC)c1C
-0.3,.,.,i,1.1,-14.4,.,-5.4,.,COC(=O)C[C@@H]1CC[C@@H]2[C@@H](COc3ccc(NC(=O)Nc4cccc(C)c4)cc3C(=O)N2C)O1
-1.1,-2.9%,0.705,i,0.7,14.4,3.7,14.7,.,CCOC(=O)c1[nH]c2ccccc2c1NC(=O)CC
-5.7,.,.,i,1.8,12.4,4.5,-3.1,.,Cc1cc(C)cc(Cn2c3ccc(NC(=O)NCc4ccc(F)cc4)cc3c(=O)n2C)c1
0.1,-1.1%,0.614,i,-3.6,-4.2,2.6,0.5,-42.6,N#CCCN(C(=O)COC(=O)C1=NNC(=O)CC1)c1ccccc1
.,3.6%,0.756,.,.,.,1.2,.,-7.8,COc1ccc(C(=O)NNC2=NC(C)(C)Cc3cc(C)c(C)cc32)cc1
3.2,-0.9%,.,i,-5.5,-1.5,3.3,-0.4,.,COc1ccc(-n2c(-c3ccc(Cl)cc3)n[nH]c2=S)c(OC)c1
0.5,.,.,i,.,0.4,0.6,1.2,9.7,CCC/C=C1/CCCOC(C(=O)NCc2ccc(C)o2)(C(F)(F)F)C1 (stereo not drawn)
-0.5,18.0%,0.679,i,-0.5,-23.0,-0.9,-14.0,98.3*,O=C(Nc1cc([N+](=O)[O-])ccc1O)c1ccc2c(c1)C(=O)N(Cc1ccco1)C2=O
-9.8,-0.6%,0.769,i,5.8,-30.5,-2.5,2.1,98.7*,CCOC(=O)N1CCC(N2C(=O)c3ccccc3C2Nc2ccc(C)cc2)CC1 (stereo not drawn)
.,18.8%,0.725,.,.,.,1.3,.,.,CCOC(=O)c1cc(C)n(CCCN2CCOCC2)c1C
-2.2,.,.,i,-3.2,4.7,3.1,0.7,-0.6,c1ccc2cc(C3CCCCC3)ncc2c1
0.0,26.9%,0.68,i,-2.9,6.0,1.8,5.9,-8.9,COc1cc(SC)ccc1C(=O)OCC(=O)NC1CC1
0.1,7.9%,.,i,-5.8,3.0,-6.0,11.1,-7.5,CCOc1ccc(NC(=S)NC23CC4CC(CC(C4)C2)C3)cc1
1.5,.,.,i,1.3,-10.8,.,-3.0,.,C[C@H](CO)N1C[C@H](C)[C@@H](CN(C)C(=O)c2cccc(F)c2)Oc2cc(-c3ccncc3)ccc2S1(=O)=O
-0.5,.,.,i,-2.1,-1.3,.,1.8,.,CCC(=O)N1[C@H](CO)[C@H]2c3ccccc3N(C(=O)c3cnccn3)C[C@H]21
.,18.9%,0.729,.,.,.,2.5,.,-8.9,O=C(CCn1cnc2ccccc2c1=O)Nc1ccc2c(c1)OCCO2
-1.0,2.5%,0.641,i,-30.2,0.6,2.9,5.5,-6.3,C=CCn1c(SCC(=O)Nc2ccccc2CC)nnc1-c1ccncc1
.,1.7%,0.732,.,.,.,-1.5,.,-14.0,CC(C)(C)C(=O)COC(=O)CNC(=O)c1ccc(Oc2ccccc2)cc1
1.0,.,0.71,i,0.6,14.1,1.4,4.6,-1.0,CCN(C(=O)CSc1nnc(C)n1-c1cccc(C)c1)C1CCS(=O)(=O)C1 (stereo not drawn)
.,>100µM*,0.681,.,.,.,-4.0,.,-23.5,COc1ccc(C(C(C(=O)c2cccs2)N2CCOCC2)N2CCOCC2)cc1OC (stereo not drawn)
-1.2,-8.0%,0.743,i,0.5,20.1,-0.9,15.6,-2.9,CCOc1ccc(C(=O)Nc2cccc([N+](=O)[O-])c2)cc1Br

As entered above.
O=C(Nc1ccc(N2CCOCC2)cc1)c1cc(F)c(F)cc1Cl – HNF4A DNA FP = -0.4
O=c1oc2ccccc2c(Nc2ccc(Cl)cc2)c1[N+](=O)[O-] – rRNA inh HTS = -2.8
C[C@H]1CN([C@@H](C)CO)C(=O)CCCn2nncc2CO[C@H]1CN(C)C(=O)c1cc(-c2ccccc2)on1 – rRNA inh HTS OD600 = 10.8&-0.1

Reformatted as tab-separated lines: 2 of the compounds above
canonical_smiles	rRNA inh HTS RFP	Vif A3G	Ecoli growth	FGF22 binding	MLL AF4-AF9 inh	rRNA inh HTS OD600	HNF4A DNA FP	rRNA inh HTS	ALR inh
CCOC(=O)N1CCC(N2C(=O)c3ccccc3C2Nc2ccc(C)cc2)CC1 (stereo not drawn)	-9.8	-0.6%	0.769	i	5.8	-30.5	-2.5	2.1	98.7*
CCOC(=O)c1cc(C)n(CCCN2CCOCC2)c1C	.	18.8%	0.725	.	.	.	1.3	.	.

(cont.)
rRNA inh HTS RFP,Vif A3G,Ecoli growth,FGF22 binding,MLL AF4-AF9 inh,rRNA inh HTS OD600,HNF4A DNA FP,rRNA inh HTS,ALR inh,SMILES
-1.3,.,.,i,-1.5,13.2,.,0.4,.,CCS(=O)(=O)Nc1ccc2c(c1)C(=O)N(C)[C@H]1CC[C@H](CC(=O)NCCCN3CCOCC3)O[C@H]1CO2
7.6,.,.,i,-5.0,10.6,.,-0.4,.,COc1ccc(NC(=O)Nc2ccc3c(c2)C(=O)N([C@H](C)CO)C[C@H](C)[C@H](CN(C)Cc2ccc(C(F)(F)F)cc2)OCCCC[C@H](C)O3)cc1
-8.4,?,0.651,i,-2.5,1.4,19.5,6.4,2.4,CCNCc1cc2cc(C)ccc2[nH]c1=O
-5.2,.,0.677,i,2.1,1.4,0.9,3.6,98.2*,COc1ccc2[nH]c(C(=O)O)c(NS(=O)(=O)c3ccc(C)cc3C)c2c1
-0.5,-7.1%,.,i,-2.0,-15.5,4.1,-14.1,.,O=C(c1ccccc1)N(c1ccccc1)c1ccccc1O
1.5,.,.,i,2.9,14.3,-0.8,-2.4,.,NCc1csc(Nc2cc(Oc3ccccc3)ncn2)n1
-0.7,.,0.692,i,-0.9,-8.6,-16.0,-13.8,37.6,N#Cc1c(NC(=O)c2ccco2)sc2c1CCC2
.,-2.8%,0.713,.,.,.,-0.4,.,-2.8,Cc1ccc(C2=NN3C(C(=O)c4ccccc4)Oc4ccccc4C3C2)cc1 (stereo not drawn)
11.7,3.9%,0.658,i,-3.8,29.2,2.0,13.5,-3.7,[O-][n+]1onc2c1CCc1[nH]c(-c3ccccc3)nc1-2
-1.4,.,.,i,-2.3,8.1,2.0,2.8,.,C[C@@H]1Cn2cnc(C(=O)Nc3ccccc3)c2C(=O)N1
-5.0,-2.7%,0.685,.,-0.9,-20.1,-0.1,-15.3,-2.4,Cc1ccc(CNC(=O)Nc2ccc3c(c2)N(C)C(=O)CS3)cc1
-2.3,.,0.677,i,-0.6,5.9,-0.6,2.1,-2.7,Cc1nc(NC(=O)CSc2nnc(C3CC3)n2N)c(Cl)cc1Cl
-2.8,.,.,i,0.5,11.2,.,5.1,.,C[C@H](CO)N1C[C@H](C)[C@H](CN(C)C(=O)c2cnccn2)Oc2ncc(-c3cccc(C#N)c3)cc2C1=O
.,0.8%,0.696,.,.,.,-2.9,.,-11.6,c1coc(-c2ncc[nH]2)c1
-1.2,74.9%,0.713,.,1.9,-31.4,-5.7,-14.0,28.0,CCOC(=O)C1=C(c2ccccc2)NC(=O)NC1c1cc(Cl)c(O)c(OC)c1 (stereo not drawn)
0.2,.,0.651,i,-1.4,1.4,6.8,3.5,-6.9,CCn1c(SCC(=O)Nc2ccc(OC)c(OC)c2)nnc1-c1cnccn1
-1.0,.,.,i,-0.9,-0.7,.,4.1,.,CCC(=O)Nc1ccc2c(c1)C(=O)N(C)C[C@@H](OC)[C@H](C)CN(C(=O)Cc1cccnc1)[C@@H](C)CO2
2.3,.,0.7,i,-1.3,14.8,-1.0,5.0,1.8,Cc1cc(C)cc(N2CC(C(=O)NC3CCCCC3)CC2=O)c1 (stereo not drawn)
-1.8,.,.,i,-1.9,3.3,.,3.9,.,O=C(N[C@@H]1CC[C@H](CCNC(=O)C2CCOCC2)O[C@H]1CO)c1ccccn1
1.4,-2.6%,0.707,i,0.9,-14.7,-4.9,-17.1,.,Cc1cnccc1CN(C)Cc1cn(C)nc1-c1cccc(Cl)c1
-3.5,.,.,i,-3.0,-12.4,.,-5.1,.,CCS(=O)(=O)N1CCC2(CC1)CN(S(=O)(=O)c1ccccc1)[C@@H](CO)c1c2c2ccc(OC)cc2n1C
9.8,.,.,i,10.6,-9.5,.,1.4,.,C[C@@H]1CCCCO[C@H](CN(C)Cc2ccc3c(c2)OCO3)[C@H](C)CN([C@@H](C)CO)C(=O)c2cc(NC(=O)Nc3ccccc3)ccc2O1
.,22.1%&1.1%,0.68,.,.,.,12.5,.,-24.0,Nc1c(C(=O)NCc2ccco2)c2nc3ccccc3nc2n1CCc1ccc(F)cc1
